# Assay outcomes from PubChem.
# NPYLR7 agonist = agonists of mosquito NPYLR7 receptor, primary screen, cell-based, Aedes aegypti, calcium fluorescence, mosquito biting behavior; Aedes aegypti neuropeptide Y-like receptor 7 (NPYLR7); HEK293T NPYLR7/Galpha15, GCaMP6s calcium fluorescence; activation, % at 10 µM; hit rate 0.15% among 270,000; in the data active means activation above about 40%;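 further: 0% = vehicle and 100% = reference agonist at the receptor; some compounds past the cut are filed as inactive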
# NPYLR7 agonist max-min = further read-out of NPYLR7 agonist, marked with its call; activation, %; measured here: Max-Min RFU normalised activation; some inactives read as strong as hits;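 span of the calcium signal over five minutes; 0% = vehicle and 100% = native peptide agonist; compound fluorescence can raise it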
# Numbers without * were called inactive; & = joins results of further samples. Some of the compounds tested; the hit share may differ from the screen's.
SMILES,NPYLR7 agonist,NPYLR7 agonist max-min
Cc1ccc(CNC(=O)C2(C)CCN2C(=O)c2ccc(C(C)(C)C)cc2)cc1 (stereo not drawn),3,4
CCOCCCNC(=O)c1cc(NC(=O)C(C)(C)CCl)ccc1N1CCCCC1,-3,5
CN1CCN(c2nc(N3CCN(c4ccccc4)CC3)ncc2F)CC1,10,10
CC(C)CNC(=O)[C@@]1(OCc2ccccc2)CC(OCc2ccc(C#N)cc2)[C@H](O)[C@H](O)C1 (stereo partly drawn),6,19
CCOC(=O)c1cc(-c2ccc(N3CCN(C(=O)c4ccco4)CC3)cc2)n(-c2ccccc2C)n1,23,11
Cc1ccc(N=c2c([N+](=O)[O-])nn(-c3ccccc3)n2O)c(C)c1,-10,-19
CC1CN(CC(=O)NCCCOC2CCCCC2)C1c1ccccc1 (stereo not drawn),11,10
O=C(c1ccccc1Br)N(Cc1ccco1)Cc1cccs1,-2,-1
CC1=CC[C@@H]2CN(C(=O)c3cnc(C)cn3)C[C@@H]2C1,3,1
COC(=O)CCN(Cc1ccccc1Br)C1CCCC1,3,1
Cc1ccccc1-c1nc(CN2CCN(C(=O)c3ccc[nH]3)CC2)c(C)o1,2,1
C=CCN(C(=O)c1cc(S(=O)(=O)N2CCCCC2)cn1C)c1ccccc1,1,-1
C(=NNc1ccc(N2CCOCC2)nn1)C1=C(N2CCOCC2)C(=Cc2ccccc2)CC1,4,4
CCCC(C)c1nnc(NC(=O)c2ccccc2-c2ncn[nH]2)s1 (stereo not drawn),12,7
CCOC(=O)C(=CNCC(=O)O)C(=O)OCC,-4,-6
Cc1csc(SCc2cc(=O)c(OC(=O)c3ccc(Cl)cc3)co2)n1,-9,-11
COCCCN(CC(=O)N1CCc2sccc2C1c1ccc(Cl)cc1Cl)S(=O)(=O)c1cccc(C(F)(F)F)c1 (stereo not drawn),27,22
COc1ccc(Cl)cc1-c1ncnc2[nH]ccc12,-1,-1
COCc1cc(N2CCN(C/C=C/c3ccccc3)CC2)nc(SCc2cccc(C(=O)O)c2)n1,11,17
O=C(NCCc1csc2nc(-c3cccs3)nn12)c1cccc(F)c1,-2,-2
Cc1csc(CN(C)C2CCCCCC2)n1,-3,-6
Cn1ccnc1-c1nccn1CCn1cccn1,25,16
Cc1ccccc1CSc1nnc(CNC(=O)Nc2ccc(F)c(Cl)c2)n1-c1ccc(Cl)cc1Cl,-3,-2
CCc1nc2ccc(C(=O)NCc3ccc(OC)cc3)cn2c1N(CC)CCN(C)C,-6,-10
Cc1ccsc1CN(Cc1cccc(C(F)(F)F)c1)Cc1nc(C(=O)NCc2ccncc2)co1,3,20

# Molecules above with a COOH group (2):
SMILES,NPYLR7 agonist,NPYLR7 agonist max-min
CCOC(=O)C(=CNCC(=O)O)C(=O)OCC,-4,-6
COCc1cc(N2CCN(C/C=C/c3ccccc3)CC2)nc(SCc2cccc(C(=O)O)c2)n1,11,17

# Some of the entries so far, bar-delimited:
molecule | NPYLR7 agonist | NPYLR7 agonist max-min
CC1CN(CC(=O)NCCCOC2CCCCC2)C1c1ccccc1 (stereo not drawn) | 11 | 10
Cn1ccnc1-c1nccn1CCn1cccn1 | 25 | 16
Cc1csc(CN(C)C2CCCCCC2)n1 | -3 | -6
Cc1ccc(N=c2c([N+](=O)[O-])nn(-c3ccccc3)n2O)c(C)c1 | -10 | -19
CCOC(=O)C(=CNCC(=O)O)C(=O)OCC | -4 | -6
CC(C)CNC(=O)[C@@]1(OCc2ccccc2)CC(OCc2ccc(C#N)cc2)[C@H](O)[C@H](O)C1 (stereo partly drawn) | 6 | 19
C=CCN(C(=O)c1cc(S(=O)(=O)N2CCCCC2)cn1C)c1ccccc1 | 1 | -1

# (more compounds)
SMILES,NPYLR7 agonist,NPYLR7 agonist max-min
CCCCC1(C)NC(=S)N(C)N1 (stereo not drawn),0,0
C=CCOc1c(Cl)cc(CNc2ncn[nH]2)cc1OC,3,0
C[C@H]1C[C@@H]2[C@H]([C@@H](O)C[C@@]3(C)[C@H]2CC[C@]3(O)C(=O)CO)[C@@]2(C)C=CC(=O)C=C12,-2&-1,-6&-3
Cc1cc(CNC(=O)C(OCC(F)(F)F)c2ccccc2)ccc1F (stereo not drawn),-1,-6
CC(NC(=O)Cn1ccsc1=O)c1ccc2ccccc2c1 (stereo not drawn),-28,-24
CC1(C)C2CC3C(C)(O)C(c4ccccc4)P(=O)(Cc4ccccc4)C3(C)CC21 (stereo not drawn),5,1
CN(C)S(=O)(=O)c1cccc(NS(=O)(=O)c2ccc(S(N)(=O)=O)cc2)c1,1,3
CS(=O)(=O)N1CCC(Oc2ccc(C(=O)NCCc3ccccn3)cc2Cl)CC1,6,3
CC(c1ccccc1)n1nnnc1N1CCC(CO)(Cc2ccccc2)CC1 (stereo not drawn),-4,-7
COCCCN(CC(=O)N(Cc1ccccc1)Cc1sccc1C)C(=O)Nc1ccc(C)c(C)c1,9,14
O=C(NCc1cccc(-n2cccn2)c1)C1CCC(=O)N(CC2CCCCC2)C1 (stereo not drawn),-1,-5
CC1CN(C)CCN1C(=O)Nc1nc(-c2ccco2)cs1 (stereo not drawn),8,2
COCCN(C)CC1CCCN1CC(=O)Nc1sc2c(c1C#N)CCC(C)C2 (stereo not drawn),8,4
Cc1ccc(C)c(CN2CCN(c3nc4c(c(=O)[nH]c(=O)n4C)n3CCc3ccccc3)CC2)c1,8,4
CC(NC(=O)CCc1cccnc1)c1ccc(Cl)s1 (stereo not drawn),1,2
COc1ccc(-c2nn(-c3ccccc3)cc2CNC(C)c2cccs2)c(F)c1 (stereo not drawn),5,-1
CCOC(=O)c1c(NC(=O)c2noc(C)c2[N+](=O)[O-])sc(C)c1C,8,6
Cc1ccccc1CN1CCC(CNC(=O)Cn2cncn2)CC1,10,2
CCCCN(CC(=O)Nc1cc(-c2ccccc2)nn1-c1ccccc1)C(=O)Nc1ccc(SC)cc1,-4,10
COc1cc(C2NC(=O)c3c(-c4ccccc4)csc3N2)ccc1O (stereo not drawn),-4,-7
O=[N+]([O-])c1ccc(C(O)Cn2c(-c3ccccc3)csc2=Nc2ccccc2)cc1 (stereo not drawn),-5,-10
CC1=NN(Cc2ccccc2F)c2nc3c(c(=O)n(Cc4ccccc4F)c(=O)n3C)n2C1,-10,-13
CNC(=O)c1ccc2cc(C3(O)CCn4cncc43)ccc2c1 (stereo not drawn),-4,-13
CC1=NN(C(=O)c2ccc(Cl)cc2)C(O)(c2ccc(Cl)cc2)C1 (stereo not drawn),-9,-14
COc1ccc2c(c1)N(CN(C)Cc1ccc(F)c(F)c1)C(=O)C2=O,6,6

# Compound profiles, from the list above. Values in the order: NPYLR7 agonist	NPYLR7 agonist max-min
# CC(NC(=O)CCc1cccnc1)c1ccc(Cl)s1 (stereo not drawn) is listed with 1	2
# CCCCN(CC(=O)Nc1cc(-c2ccccc2)nn1-c1ccccc1)C(=O)Nc1ccc(SC)cc1 is listed with -4	10

# Later entries
SMILES,NPYLR7 agonist,NPYLR7 agonist max-min
CCOC(=O)c1cnc(C2CC2)nc1NCCCN(C)c1ccccc1,-3,-3
CCn1c(C)cc(O)c(C(c2cccnc2)c2c(O)cc(C)n(CC)c2=O)c1=O,7,7
CCOC(=O)c1cc(C#N)c(SCC(=O)Nc2ccc3c(c2)OCO3)nc1C,1,-1
COC(=O)[C@]1(C)N[C@H](c2cc3ccccc3n(C)c2=O)[C@@H]2C(=O)N(C)C(=O)[C@@H]21,3,3
CC(C)=CCN1CCC2(CCCO2)CCC1=O (stereo not drawn),7,2
O=C(O)c1nn(-c2ccccc2F)c(=O)n(Cc2ccccc2Cl)c1=O,12,11
NC(=O)c1ccsc1NC(=O)COC(=O)c1ccc([N+](=O)[O-])o1,8,3
CCc1cc(CNC(=O)NC2CCc3cc(Cl)ccc32)on1 (stereo not drawn),-7,-7
CCOC(=O)CC1COCCN1C(=O)C1CCN(c2nc(C)c3cc(C(C)C)ccc3n2)CC1 (stereo not drawn),27,3
CC1CCN(c2ncnc3sc4c(c23)CCC(C)C4)CC1 (stereo not drawn),7,8
CN(c1ccc(CNc2ccc(Cl)cn2)cc1)S(C)(=O)=O,-24,-25
O=C1C(c2c(-c3ccccc3)[nH]n(-c3ccccc3)c2=O)=C(N2CCOCC2)C(=O)N1C1CCCCC1,8&6,5&15
COC(=O)c1c(C(=O)OC)c2n(c1C)[C@@H](c1ccccc1)SC2,2,36
Cc1onc(-c2c(Cl)cccc2Cl)c1C(=O)N1CCC(c2ccccc2)CC1,-2,-9
O=C(NCc1ccc(-c2ccn[nH]2)cc1)N(Cc1cccnc1)C1CC1,2,44
NC(=O)Cc1csc(NC(=O)C2CCN(c3ccc(C(F)(F)F)cn3)CC2)n1,1,1
Cc1ccc(CNc2nc(NC(C)C)nc3ccsc23)c(C)c1,6,2
CC(NC(=O)Nc1cnn(C(C)C)c1)c1cccc(Cl)c1 (stereo not drawn),-1,-4
COc1ccc(C(=O)N(Cc2ccco2)Cc2c(-c3cccc(C)c3)noc2N2CCOCC2)cc1,7,11
Cc1nn(-c2ccc(Cl)nn2)c2c1C(c1ccccc1OCC(C)C)CC(=O)N2 (stereo not drawn),-1,-3
COCCCN(Cc1cccn1Cc1cccc(OC)c1)CC(O)COc1ccccc1 (stereo not drawn),-6,-4
CCN1CCN(c2c(CN(CC(C)C)S(=O)(=O)c3ccc(F)cc3)c(C)nn2-c2cccc(F)c2)CC1,-2,-4
CCOC(=O)[C@@H](NS(=O)(=O)Cc1ccccc1Cl)C(C)(C)C,-1,-1
Cc1cccc(CO[C@]2(C(=O)NCC3CCCO3)CC(OCc3ccccc3F)[C@H](O)[C@H](O)C2)c1 (stereo partly drawn),9,17
Cc1ccc(CNC(=O)C2(C)CCN2C(=O)CC2CCCC2)cc1 (stereo not drawn),7,2
# Additional compounds follow.
SMILES,NPYLR7 agonist,NPYLR7 agonist max-min
O=c1cc(CN(Cc2cccs2)c2ccc(Br)cc2)nc2ccccn12,2,0
C=C(C)COc1ccc(C(=O)NC(C)Cc2cnccn2)cc1 (stereo not drawn),2,2
CCN(CC)C(=O)Oc1ccc2c(ccn2Cc2ccc(/C=C/c3ccccc3)cc2)c1-c1cc(F)cc(F)c1,18,6
Cc1cc(C)n2nc(SC3CCCCNC3=O)nc2n1 (stereo not drawn),13,10
COc1cccc(CN(C)C(=O)c2ccc(OC3CCN(Cc4ccccn4)CC3)cc2)c1,5,2
O=C(NCCC12CC3CC(CC(C3)C1)C2)C1=COCCO1,5,3
Cc1onc(C(=O)N(C)CCn2ccc3ccccc32)c1CO,-5,-7
CCNC(=O)Cc1ccc(-c2cnc3ccccc3c2)cc1,-1,2
COc1cc(/C=C2/C(=O)N(c3ccccc3)N=C2C)ccc1OCCOc1ccc(C)cc1,-5,-10
c1ccc(-c2ccnc(CCn3cnc(-c4ccccc4)c3-c3cnc[nH]3)n2)cc1,13,3
O=C(NC1CCN(c2ccccc2C(=O)NCCc2cccs2)CC1)c1ccccc1Cl,14,14
CCOC(=O)CCCCC(=O)c1[nH]c(=O)[nH]c1Cn1ccnc1,14,7
Cc1nc2ccccc2n1CCCOc1ccccc1,0,2
O=C(CC1C(=O)NCCN1CC1CCCCC1)NCCc1ccc(F)cc1 (stereo not drawn),1,1
COc1ccc(C(=O)N2CCN(c3cc(Cl)nc(SCC(=O)NCc4cccc(C(F)(F)F)c4)n3)CC2C)cc1 (stereo not drawn),-8,-2
Cn1c(CO)cnc1SCc1noc(C2CC2)n1,5,2
COC(=O)[C@H](C(C)C)N(C)C(=O)C1CCCN(Cc2cnc3ccccn23)C1 (stereo partly drawn),-1,28
CCOc1ccc(OCCCOc2ccc(C)cc2I)cc1,-6,-4
CCN(CC1CCOC1)C(=O)c1ccc(C)c(NC(=O)c2ccccc2)c1 (stereo not drawn),15,12
COCCN1CCN(c2cc(Oc3ccccc3C)ncn2)CC1,23,30
Cc1cc(N(C)C2CCCCC2)nc(SCc2cccc(C(=O)O)c2)n1,12,23
O=C(CSc1nc(=O)n2cc(Cl)ccc2n1)Nc1cccc2ccccc12,-2,-3
CCCC1CCc2nc3ccccc3c(C(=O)O)c2C1 (stereo not drawn),14,11
CCc1ccccc1SCc1ccc(C(=O)N2C3CCC2CC(Oc2ccccc2C(C)C)C3)cc1 (stereo not drawn),3,13
COc1cccc(C(=O)N2CCN(Cc3nc(-c4ccc(F)c(OC)c4)oc3C)CC2)c1,-8,-12
# Following part
SMILES,NPYLR7 agonist,NPYLR7 agonist max-min
CCc1nc(NC(=O)c2cc(S(C)(=O)=O)ccc2Cl)sc1C,5,5
O=C(Nc1cc(S(=O)(=O)N2CCOCC2)ccc1Oc1ccc(F)cc1)c1cccs1,-2,-1
CC(c1ccccc1)N1CCC(NC(=O)c2cc(=O)c3ccccc3o2)C1 (stereo not drawn),5&-3,5&-5
Cn1c(-c2cccnc2)cc2c(Nc3ccc(F)cc3)nccc21,-4,-9
O=C(Cn1nnnc1CN1CCCC1)N1CCc2ccccc2C1,2,2
COc1ccc(-c2cc(C3(CNc4ccc(OC)c(OC)c4)CC3)ccn2)cn1,-8,-9
O=C(NCc1ccccc1)c1cc2nc(-c3ccc(Br)cc3)cc(C(F)(F)F)n2n1,6,4
O=C(NCc1ccc2c(c1)OCO2)c1cccnc1N1CCN(C(=O)c2cccc(Cl)c2)CC1,20,10
OCc1cccc(-c2ccc(-c3nc(-c4ccccc4F)no3)cn2)c1,2,-8
CCCNC(=O)c1nnc2n1CCN(C(=O)C1(c3ccc(Cl)cc3)CCCC1)C2,6,2
Cc1cccc2ncc(CO)n12,-15,-22
CNc1snc(C)c1C(=O)NC1CCCC(C)C1 (stereo not drawn),-1,-3
COc1cccc(CN(C)CC2COc3ccccc3O2)c1O (stereo not drawn),9,7
O=c1c2cnc3ncnn3c2ccn1CCS,6,10
